# VACV E9 pol inh – inhibitors of vaccinia virus processive DNA synthesis (E9 polymerase); normalized absorbance, % (no concentration beside the values); 46,000 compounds, 0.94% hits; AID 493162; in vitro processive DNA synthesis, absorbance read-out; active compounds read low; some inactives read as strong as hits;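 active = replicate mean up to 90% and picked by the depositor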;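 also: 100% = median of the test wells of a plate; 100 nL library stock went into each well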
# Starred values were filed as active, the others as inactive; & = joins results of further samples. A portion of the library; rates above refer to the full screens.
SMILES,VACV E9 pol inh
CCC(=O)Nc1c2c(nn1-c1ccc(C)cc1)CS(=O)C2 (centres undefined),103
CCCCc1nc2sc3c(NCc4ccccc4)ncnc3c2c2c1COC(C)(C)C2,101
CCN(CC)CC(O)COc1ccc(NC(C)=O)cc1 (centres undefined),107
O=C(c1cn(-c2ccccc2)nc1-c1cccs1)N(CCO)c1ccccc1,103
Cc1cc(C)n2cc(CSC3CCCC3)nc2n1,89
CC(=O)NC1C(=O)N=C(SCc2ccccc2)NC1=O (centres undefined),96
Cc1ccc(Oc2nnc(-c3cccs3)c3ccccc23)cc1,100
COc1ccc(C2C(C(=O)N(C)c3ccc(C(C)C)cc3)CC(=O)N2c2ccc(OC)cc2)cc1 (centres undefined),98
Nc1ccc(C(c2ccc(N)cc2)C2NC(=O)c3ccccc32)cc1 (centres undefined),100
COc1ccccc1-c1nn(CCC(=O)NCCc2ccc(Cl)cc2)c2nc(C)cc(C)c12,102

# Among those listed so far, two have an aryl methoxy group:
SMILES,VACV E9 pol inh
COc1ccc(C2C(C(=O)N(C)c3ccc(C(C)C)cc3)CC(=O)N2c2ccc(OC)cc2)cc1 (centres undefined),98
COc1ccccc1-c1nn(CCC(=O)NCCc2ccc(Cl)cc2)c2nc(C)cc(C)c12,102

# Among those listed so far, these contain sulfur:
SMILES,VACV E9 pol inh
CCC(=O)Nc1c2c(nn1-c1ccc(C)cc1)CS(=O)C2 (centres undefined),103
CCCCc1nc2sc3c(NCc4ccccc4)ncnc3c2c2c1COC(C)(C)C2,101
O=C(c1cn(-c2ccccc2)nc1-c1cccs1)N(CCO)c1ccccc1,103
Cc1cc(C)n2cc(CSC3CCCC3)nc2n1,89
CC(=O)NC1C(=O)N=C(SCc2ccccc2)NC1=O (centres undefined),96
Cc1ccc(Oc2nnc(-c3cccs3)c3ccccc23)cc1,100

# Continued.
SMILES,VACV E9 pol inh
c1ccc(-c2nc(-c3cccnc3)n[nH]2)nc1,105
Cc1noc(/C=C/N(C)C)c1S(=O)(=O)NC1CCCCC1,100
CC(C)C1C(=O)NN(c2ccccc2)C1=S (centres undefined),101
Cc1nc(N)c(C#N)c(-c2ccc(Br)s2)c1C,109
CCc1ccc(NC(=S)NN)cc1,107
C1=C(CCNc2ncnc3c2cnn3-c2ccccc2)CCCC1,100
Cc1oc(C)c(C(=O)O)c1CN,101
Cc1cc(NC(=O)NCc2ccccc2)c(C(F)(F)F)o1,96
COc1ccc(NC(=S)NC2CC(C)(C)NC(C)(C)C2)cc1,100
Nc1nccc(-c2ccc(Oc3ccc(Cl)cc3)cc2Cl)n1,76*
Cc1ccc(S(=O)(=O)N2CCC(C#N)=C(O)c3ccccc32)cc1,100
O=C(c1ccccc1)N1CCCC(C(=O)N2CCC(Cc3ccccc3)CC2)C1 (centres undefined),98
OC(CCN1CCN(C(c2ccccc2)c2ccccc2)CC1)C(F)(F)C(F)(F)F (centres undefined),108
CCNS(=O)(=O)c1ccc(Cl)cc1I,96
O=C(COC(=O)Cc1ccc(Cl)cc1)NC1CCCCCC1,98
CC(=O)Nc1ccc(Nc2nc(-c3ccccc3)c3cc(Br)ccc3n2)cc1,105
CCn1c(=S)[nH]c2ccccc2c1=O,101&110
COC(=O)c1[nH]nc2c1C(=O)N(C1CCCCC1)C2=O,109
Cc1ccc(-c2nnc(Sc3nc4ccccc4o3)c3ccccc23)cc1,100
N#Cc1ccc(N2Cc3ccccc3C2=NC(=O)c2cccs2)cc1,96
C=CC[n+]1cc(-c2ccccc2)n2c1CCCCC2,108
CNC(=O)[C@H](Cc1c[nH]c2ccccc12)NC(=O)[C@@H](CC(=O)NO)CC(C)C,99
CC(O)(CNC12CC3CC(CC(C3)C1)C2)c1ccc(Cl)cc1 (centres undefined),107
Cc1nn(C)c2ncc(C(N)=O)c(Oc3cccnc3)c12,97
COc1ccc(OC)c(NC(=O)CSc2nc3nc(C)c(Cc4ccccc4)c(C)n3n2)c1,98
O=C(CC(=O)Nc1ccc(F)cc1F)Nc1ccc(F)cc1F,90
N=c1oc2ccccc2cc1C(N)=O,101
O=C1CCC(=O)N1Cc1c(Cl)cccc1Cl,107
CCOc1ccc(-c2nc3c(c(SCC(=O)OC)n2)Cc2cccc(OCC)c2O3)cc1,101
O=C(C1CCC(CNS(=O)(=O)c2cccc3cccnc23)CC1)N1CCc2ccccc21 (centres undefined),103
OCc1cc(Cl)ncc1Cl,100
CC1CC(C)(C)OC(C(C)(C)CN(C)C)O1 (centres undefined),102
Cc1cccc(CN(C(=O)Nc2ccc(Cl)c(Cl)c2)c2ccccn2)c1,100
N#Cc1c(SC2CCCC2)nsc1SC1CCCC1,100
COC(=O)c1cc(Cl)sc1NC(C)=O,108
COc1ccc2nc3c(cc2c1)c(=O)n(C)c(=O)n3C,86
Cc1nc2c(C(=O)NCc3ccc4c(c3)OCO4)cnn2c(C)c1Cc1c(F)cccc1Cl,99
CSC(=NC(C)(C)C)Nc1ccccc1Cl,110
CCOC(=O)C1(O)c2ccccc2-c2ccccc21,101
COC(=O)C1C(=O)C2=C(CC1C)Nc1ccccc1NC2c1ccccc1C (centres undefined),100

# Structural class: the compounds so far containing an NH in an aromatic ring
SMILES,VACV E9 pol inh
c1ccc(-c2nc(-c3cccnc3)n[nH]2)nc1,105
CCn1c(=S)[nH]c2ccccc2c1=O,101&110
COC(=O)c1[nH]nc2c1C(=O)N(C1CCCCC1)C2=O,109
CNC(=O)[C@H](Cc1c[nH]c2ccccc12)NC(=O)[C@@H](CC(=O)NO)CC(C)C,99

# New compounds follow.
SMILES,VACV E9 pol inh
O=C(c1ccc2c(c1)OCO2)N1CCCC1,106
Cc1[nH]c2ccccc2c1-c1csc(N)n1,93
COCCN1C(=S)NC2c3ccccc3OC13CCCC23 (centres undefined),98
CN1CN=C2SC3(COC(c4ccc(N(C)C)cc4)OC3)C(=O)N2C1 (centres undefined),100
N#Cc1cc2c(nc1SCC(N)=O)CCCC2,96
OC(COCc1ccco1)CN1CCc2ccccc2C1 (centres undefined),110
O=C(NC1CCN(Cc2ccccc2)CC1)c1ccsc1,124
O=S(=O)(c1cccc(C(F)(F)F)c1)N1CCCC1c1cccnc1 (centres undefined),114
CC(C)(C)C(=O)COC(=O)Cc1ccc(-c2ccccc2)cc1,101
COC(=O)c1ccccc1NC(=O)c1ccc2nc(N3CCCCC3)sc2c1,87
N#CCC(=O)Nc1nc2ccccc2nc1Cl,97
O=C(Cc1ccccc1)Nc1ccc(-c2nc3cccnc3s2)cc1,84
COc1ccc(C(=O)Nc2ccc(Oc3ccccc3)cc2)cc1I,100
OC(CN1CCOCC1)c1ccccc1 (centres undefined),106
Cc1nc2ccccn2c1-c1ccnc(=S)[nH]1,98
COC(=O)c1c[nH]n2c(=O)cc(C)nc12,105
Clc1ccc(Cn2ncc3c(NC4CCCCC4)ncnc32)cc1,101
COc1ccc(-c2cc(C(F)(F)F)nc(SCC(=O)N(C)C3CCCCC3)n2)cc1,116
CCCCc1c(C)nc2c(OC)cccc2c1SCCC(=O)O,95
CCOC(=O)c1c(C)[nH]c(/C(C)=N\O)c1C,98
CC(=O)Oc1ccc2c(=O)c(-c3csc(C)n3)coc2c1,105
CC1(C)OC(=O)NC1=O,99
CNc1nc2c(-c3ccc(Cl)cc3)nnn2c2ccccc12,99
CC(C)C(=O)/C=C1/Sc2ccccc2N1C,99
CCCNC(=O)c1ccc2c(c1)ncn2-c1cccc(C)c1,101
Clc1ccc(Oc2ccc(N=Cc3ccc(I)o3)cc2)cc1,100
Cc1ccc(C(=O)C2C(=O)c3ccccc3C2=O)cc1,99
COC(=O)c1ccc2oc(=O)c(S(=O)(=O)c3ccccc3)cc2c1,108
Cc1ccc(NC(=O)COC(=O)CSc2n[nH]c(-c3ccccc3)n2)cc1,100
O=c1oc(-c2cccc(C(F)(F)F)c2)nn1-c1ccc(C(F)(F)F)cn1,108
Cc1nnc(Sc2cc(C(=O)NCc3ccccn3)c3ccccc3n2)s1,98
CN1C(=O)/C(=C\c2cccs2)c2ccccc21,85
O=C(O)Cn1cc2c(n1)CCCC2,106
Cc1cc2cc(CNC(=O)C(C)(C)Oc3ccc(Cl)cc3)ccc2n1C,96
CCn1c(C)c(CCC(=O)Nc2ccc(C(=O)OC)cc2)c(=O)n2nc(-c3ccccc3OC)cc12,102
CN(C(=O)c1ccc(Cl)cc1Cl)C1CCS(=O)(=O)C1 (centres undefined),98
O=C(CN1C(=O)CC(c2ccccc2)Sc2ccccc21)N1CCCCC1 (centres undefined),102
Cn1cccc1Cc1nnc(SCC(=O)Nc2ccc3c(c2)OCCO3)n1CCc1ccccc1,90
COCc1cnc(C)nc1N,112
CSc1sc(-c2nc(C)cs2)c(C)c1-c1ccnc(=S)[nH]1,106
CCC(N=c1cc(-c2ccc(OC)cc2)oc2ccc(C)cc12)C(=O)O (centres undefined),98
O=C1CC(=O)N(c2ccccc2)N1c1ccccc1,100
Cc1ccc2c(c1)NC(=O)C(CCCl)O2 (centres undefined),104
OC(CSc1nccc(-c2ccc3c(c2)OCCO3)n1)C(F)(F)F (centres undefined),101
COc1ccc(NC(=O)C2CCCN(S(=O)(=O)c3ccc4c(c3)oc(=O)n4C)C2)cc1Cl (centres undefined),101
N#CC1c2ccc(Br)cc2C=CC1c1ccccc1 (centres undefined),99
CC1=Nc2cc(C(=O)NCCCN3CCOCC3)ccc2Sc2c(C)ccc(C)c21,102
CNS(=O)(=O)c1ccc2[nH]c(=O)[nH]c2c1,99
Cc1[nH]c2ccccc2c1SCC(=O)NN,103
Fc1ccc(-c2ncc3ccccn23)cc1,98

# Next entries.
SMILES,VACV E9 pol inh
O=C(COC(=O)c1ccc(Br)o1)c1ccccc1,96
O=C(CN1C(=O)CCC1=O)Nc1ccc(Cl)cc1C(=O)c1ccccc1,98
CCCc1nc2ccccc2n1CC(=O)N(COCC)c1c(C)cccc1CC,100
N#CCCN1c2ccccc2Sc2ccccc21,94
O=C(O)CCNCc1c(Cl)cccc1Cl,102
Cc1ccc(C(=O)O)cc1-n1cccc1,104
CCc1nc2ccccc2c(C(=O)OCc2ccc(C#N)cc2)c1C,107
COc1ccc2c3c1CCCN3CCC2,101
Cc1[nH]n(C)c(=O)c1C(=O)Nc1ccccc1,106
CN(c1ncnc2c1nc1n2CCCCC1)C1CCCCC1,99
CCNc1nc(Oc2ccc(=O)[nH]n2)nc(N2CCOCC2)n1,103
Cc1ccc(C(=O)OCC(=O)Nc2ccccc2C)cc1C,100
CC1(C)c2cc(Cl)ccc2-n2c1cc(O)c(-c1ccccc1)c2=O,87
Cc1nc2ccccc2n(CC(=O)Nc2cc(Cl)cc(Cl)c2)c1=O,98
Cc1cc(OC(C)C)c2c3c(c(=O)oc2c1)CCCC3,104
CNC(=O)CCc1nc(-c2ccccc2)no1,117
CC(=O)NCCOc1c(C)cccc1C,100
Cc1cccc(CC(=O)NCc2ccc3[nH]c(C)cc3c2)c1,97
CC1(C)Cc2c(ccc3ccccc23)C(=NCCC(=O)O)N1,100
CCC(=O)NC(c1ccccc1)c1nc2ccccc2[nH]1 (centres undefined),97
Cc1[nH]c(=S)[nH]c1C12CC3CC(CC(C3)C1)C2,100
S=C1CC(c2ccccc2)Sc2ccccc2N1 (centres undefined),93
CCOC(=O)c1c(NC(=O)OC)sc2c1CCCC2,100
O=C(O)CCC(=O)N1CCOCC1,95
O=C(CN1C2=NCCN2c2ccccc21)c1ccc(Cl)cc1Cl,100
CSc1cccc(NC(=O)/C=C/c2ccc(C(C)C)cc2)c1,104
CCOC(=O)c1cc2cc(Br)ccc2oc1=O,98
C=C(C)Cn1c(CCCNC(=O)c2ccccc2OC)nc2ccccc21,108
Cc1cc(C)nc(Nc2ccc(NS(=O)(=O)/C=C/c3ccccc3)cc2)n1,102
Clc1ccc(-c2ncnn2-c2ccccc2)c(Cl)c1,100
Nc1nc2c(-c3ccc(Br)cc3)nnn2c2ccccc12,104
O=C(O)C12CCCC(CBr)(CCC1)C2,94
COc1cccc(CC(C)C(N)=O)c1 (centres undefined),95
CCN(CC)C(=O)Cc1cc(OC)c(OC)cc1Br,103
O=C(CSc1c2c(nc3ccc(Cl)cc13)CCCC2)NCc1ccccn1,104
N#Cc1ccccc1-n1cccc1,115
c1ccc(CNC2CCCc3c2[nH]c2ccc(-c4ccccc4)cc32)cc1 (centres undefined),100
COc1cc(SC)ccc1C(=O)N1CCc2ccccc2C1,100
COC(=O)c1ccc(Cl)cc1OC(=O)c1ccccc1,96
O=C(NCCCN1CCOCC1)c1ccc2c(=O)n(CCCN3CCCC3=O)c(=S)[nH]c2c1,101
Cc1ccc(C)c(CSc2ncnc3ccccc23)c1,93
COc1ccc(-c2cc(C(F)(F)F)nc(SCCC(=O)N(C)Cc3ccccc3)n2)cc1,100
O=C(O)C1CCCCC1C(=O)Nc1ccc2c(c1)OCCO2 (centres undefined),100
CCCCn1c(CCNC(=O)CC)nc2ccccc21,102
Cc1cccc(CCNC(=O)CCc2nnc3n(Cc4ccccc4)c(=O)c4ccccc4n23)c1,89
O=C(/C=C/c1ccc(Cl)cc1)NCc1ccccc1,100
Cc1cc(O)c(C=Nc2ccccc2Br)c(=O)o1,93
CCOC(=O)CC(Sc1ccccc1N)c1cc(OC)c(OC)c(OC)c1 (centres undefined),94
CC(C)N(CCc1ccncc1)C(=S)NCC1CCCO1 (centres undefined),95
CC1CN(c2nnnn2-c2ccccc2)CC(C)O1 (centres undefined),90

# Next part
SMILES,VACV E9 pol inh
CC(C)Cn1c(C(C)NC(=O)c2ccccc2)nc2ccccc21 (centres undefined),98
CC(C)(C)c1cc2ncnc(NC3CCN(Cc4ccccc4)CC3)c2s1,83
COC(CNC(=O)c1ccc2c(c1)N(Cc1ccccc1F)C(=O)c1ccccc1S2=O)OC (centres undefined),98
CNCCn1ccc2ccccc21,108
C=CCNC(=O)c1cc2c(=O)n3ccccc3nc2n(CCC)c1=N,100
COc1c(-c2ccc(C)cc2)nc2ccccn12,97
CCOC(=O)c1cc2cc(-c3c(C)oc4cc(O)ccc4c3=O)ccc2o1,99
N#Cc1ccccc1CSC1=NCCS1,81
CCCN(CCC)C(=O)Cn1c(=O)oc2cc(S(=O)(=O)N3CC(C)CC(C)C3)ccc21 (centres undefined),94

# Part of the list above, as labelled records:
COCCN1C(=S)NC2c3ccccc3OC13CCCC23 (centres undefined)
- VACV E9 pol inh: 98
CN1CN=C2SC3(COC(c4ccc(N(C)C)cc4)OC3)C(=O)N2C1 (centres undefined)
- VACV E9 pol inh: 100
